GIV-Gai inh: blocks GIV peptide binding to rat Galpha-i3. P08753. Galpha-i3/FITC-GIV peptide fluorescence polarization, 90 min; hits give low values; scaled: aluminum fluoride 0%, vehicle 100%. percent of control (FP), % (test concentration not listed). hit rate 0.42% among 210,000;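 active = replicate mean at 85% of control or lower, very high polarization wells dropped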;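 also: wells of about 15 µL received 100 nL stock; the first replicate is given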
Target sequence (P08753 whole entry, looked up): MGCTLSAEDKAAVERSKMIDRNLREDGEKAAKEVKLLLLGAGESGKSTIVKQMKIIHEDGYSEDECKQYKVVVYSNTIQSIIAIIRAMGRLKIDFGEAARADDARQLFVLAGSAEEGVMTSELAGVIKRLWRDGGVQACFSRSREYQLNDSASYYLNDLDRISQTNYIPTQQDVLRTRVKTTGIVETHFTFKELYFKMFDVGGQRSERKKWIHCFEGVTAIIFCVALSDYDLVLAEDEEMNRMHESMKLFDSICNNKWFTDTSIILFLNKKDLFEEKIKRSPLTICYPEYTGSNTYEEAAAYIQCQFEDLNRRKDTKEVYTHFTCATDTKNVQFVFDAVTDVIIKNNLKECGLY
HCMV NEC inh: cytomegalovirus nuclear egress complex inhibition; inhibition, % (concentration not given with the values); HTRF UL50-UL53 interaction, normalized percent inhibition; hit rate 0.15% among 190,000;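 active = both replicates at 50% or more, plus weaker picks with an unusually low signal ratio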;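 also: stock transfer was 100 nL into about 20 µL; 0% = negative control wells and 100% = wells with untagged competitor protein; inactives centre near -12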
Sa growth inh: inhibitors of Staphylococcus aureus growth at 42 °C; S. aureus RN4220 growth, OD600, 20 h; hits give low values; relative growth, % (concentration not given with the values); hit rate 0.53% among 170,000; AID 720641;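 active = growth at 42 °C up to 50% and 20 or more points under that at 30 °C, or under 10% at both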;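 also: 300 nL library stock went into each well; scaled to the means of positive and negative controls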
Sa growth inh second temp: second read-out of Sa growth inh, no call of its own (marks repeat the call); relative growth, %; measured here: growth at 30 °C;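 optical density after 20 h as mean of two plates; 100% = untreated growth and lower means inhibition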
* = called active by the depositor; nt = not tested or not shown; & = joins results of further samples.

SMILES	GIV-Gai inh	HCMV NEC inh	Sa growth inh	Sa growth inh second temp
COc1ccc(Nc2nc(C)c(NC(=O)CC(C)C)c(Nc3ccc(OC)cc3)n2)cc1	104	23	nt	nt
Cc1ccc(N2CC(c3nnc(NC(=O)c4ccco4)s3)CC2=O)cc1Cl (stereo not drawn)	98	0	107	93
O=C(COC(=O)c1ccc(Cl)cc1)NC1CCS(=O)(=O)C1 (stereo not drawn)	nt	-13	80	84
O=c1[nH]c(C2CCCN(S(=O)(=O)c3ccccc3)C2)nc2c1nnn2Cc1ccc(OC(F)(F)F)cc1 (stereo not drawn)	98	-15	104	93
CN(CCO)c1nc(N)c2c(N)nc3c(c2c1C#N)CC(=O)N3C1CCCC1	nt	101*	110	97
COC(=O)Cc1cccc2ccccc12	nt	-23	121	90
C=CCN1C(=O)/C(=C/c2cc(C)n(CCOC)c2C)C(=O)NC1=S	177	nt	95	92
O=c1cc(-c2ccccc2)c2cc3c(cc2[nH]1)OCCO3	nt	-17	77	90
Cc1ccnc(N2C(=O)CCC2=O)c1	99	-11	111	99
CC(=O)Nc1c(-c2ccc(C)cc2)c(C)nn1-c1ccc(C(=O)N2CCc3ccccc3C2)cc1	108	-15	nt	nt
Cc1ccc(NC(=O)Nc2ccc(SCc3cc(=O)n4c(ncn4C(C)C)n3)cc2)c(Cl)c1	107	-8	nt	nt
CCOC(=O)c1c(NC(=O)C2=CC(c3cccs3)=NS(=O)(=O)N2C)sc(C)c1C	103	3	78	77
O=C(O)COc1ccc(/C=C2\COc3ccccc3C2=O)cc1	nt	4	94	97
COc1cccc(NCc2nnc(-c3ccccc3)o2)c1	100	-10	106	83
CC1=CC(=O)C(N(C)C2CCS(=O)(=O)C2)=CC1=O (stereo not drawn)	nt	-10	68	43
CCOc1ccc2oc(=O)cc(CN3CCN(c4ccccc4)CC3)c2c1	100	-13	90	88
OCCNCc1ccc(-c2cc(Cl)cc(Cl)c2)o1	113	-6	nt	nt
COc1ccc(N2CCN(C(=O)c3nn(-c4ccccc4)nc3C)CC2)cc1	nt	-13	104	103
CN(Cc1ccccc1)C(=O)c1cc(-c2ccccc2O)no1	98	-2	118	95
O=C(Cn1ccccc1=S)c1ccccc1	100	-2	109	102
CCOCCC(=O)N1CCN(c2ccccc2)CC1	108	2	88	99
CCc1ccc(NCc2c(C(=O)O)cnn2-c2ccccc2)cc1	101	nt	103	80
COc1ccc(CCNC(=O)NC(C)(C)C)cc1	nt	20	78	101
COC(=O)c1ccc(O)c(CSc2ccccn2)c1	101	1	102	76
COc1ccc2cc(S(=O)(=O)c3ccc(C)c(C)c3)c(=Nc3ccc4c(c3)OCCO4)oc2c1	103	nt	92	95
COc1ccc(-c2nc(CCNC(=O)c3ccc(OC(C)C)cc3)cs2)cc1	94	-8	nt	nt
c1ccc(-c2nn3c(CN4CCCC4)nnc3c3ccccc23)cc1	106	-26	100	94
CCOC(=O)c1nn(-c2ccccc2)c(C(=O)OCC)c1NC(=O)C1CCCCC1	108	-12	94	91
CSC(=CC(=O)c1ccncc1)SC	99	-51	106	81
CC(C)(C)c1ccc(C(=O)NNc2ncnc3c2cnn3-c2ccc(Cl)cc2)cc1	102	nt	142	76
CC1CCN(S(=O)(=O)c2ccc3[nH]ccc3c2)CC1	103	nt	84	101
COc1ccc(S(=O)(=O)Nc2cc(C)cc(C)c2)cc1	nt	0	121	100
CCn1cc(C(=O)NCc2cccnc2)c2cc(OC)c(OC)cc2c1=O	103	nt	105	87
COCCNC(=O)CSc1nnc(NC(=O)Nc2ccc(C)cc2)s1	95	nt	90	90
Cc1ccc2[nH]c(C)c(C(O)CN3CCc4ccccc4C3)c2c1 (stereo not drawn)	103	-2	nt	nt
S=C1NCN(Cc2ccccc2)CN1CC1CCCO1 (stereo not drawn)	106	nt	79	84
O=C(O)CC(Cc1ccccc1)c1ccc2c(c1)OCO2 (stereo not drawn)	95	-4	114	102
CN(Cc1ccccc1)C(=O)CSc1nnc(-c2ccc(Cl)cc2)o1	102	-24	nt	nt
O=C(Nc1ccccc1)c1c[nH]c(=O)n(-c2ccccc2)c1=O	102	nt	101	82
C/C(=N\OCc1ccc(C#N)cc1)c1ccc2c(c1)OCCO2	nt	-20	95	92
CN(C)S(=O)(=O)c1ccc(C(=O)OCc2ccccc2F)cc1	nt	-18	94	97
CC1(C)Cc2cccc(OCCNC(=O)c3cnccn3)c2O1	102	-21	78	91
O=C(NCc1cccnc1)c1c(-c2ccccc2)nc2n1CCS2(=O)=O	101	-10	nt	nt
COc1ccc(N=Cc2c(N3CCCC3)nc3c(C)cccn3c2=O)cc1	nt	-61	102	90
CC(C)NC(=S)NN=C1CCCCC1	nt	8	98	95
CCOc1ccc(/C=C/c2nc(C#N)c(Nc3ccc(OC)cc3)o2)cc1	97	-31	104	86
COc1ccc(NC(=O)Cn2c(=O)n(Cc3ccco3)c(=O)c3sc4ccccc4c32)cc1Cl	99	-21	97	73
Oc1ccc2ccccc2c1CN1CCCC1	101	-8	92	83
COc1ccccc1NC(=O)c1cccc(N2C(=O)C3CC=CCC3C2=O)c1 (stereo not drawn)	nt	17	84	92
CCN(CC)c1ncnc2c1cnn2C	98&98	0	86	91
COc1ccccc1NC(=O)c1oc2ccccc2c1NC(=O)C1c2ccccc2Oc2ccccc21	104	-14	nt	nt
CCOc1nc2cccc(C(=O)O)c2n1Cc1ccc(-c2ccccc2-c2nn[nH]n2)cc1	108	-39&-19	103	97
Cc1ccccc1OCC(=O)Nc1nnc(SCc2cc(=O)n3cc(Cl)ccc3n2)s1	103	nt	85	88
COc1ccc(-n2ccnc(NCCc3ccc(S(N)(=O)=O)cc3)c2=O)cc1Cl	101	nt	86	88
O=S(=O)(c1cccs1)N1CN(Cc2ccccc2)c2nc3ccccc3nc21	102	-33	115	86
COC(=O)c1ccccc1NC(=O)c1noc2c1CSc1ccccc1-2	100	-6	74	86

New compounds follow.
SMILES	GIV-Gai inh	HCMV NEC inh	Sa growth inh	Sa growth inh second temp
CCOCCCNC(=O)N1Cc2c(sc3c2CCCC3)-n2cccc2C1c1ccc(N(C)C)cc1 (stereo not drawn)	107	-33	nt	nt
O=C(CSc1nn2c(=O)cnnc2s1)N1CCc2ccccc21	103	9	108	98
COc1ccc(Cn2ccc3nc(C)c(C(=O)NCc4ccc(F)cc4)cc3c2=O)cc1	101	nt	77	95
CCOc1nc2cccnc2n(Cc2cc(=O)n3ccccc3n2)c1=O	104	-40	104	86
CC(=O)N1CCC(Nc2ccc(C)cc2)CC1	102	-26	122	83
CCc1nnc(NC(=O)c2ccc(S(=O)(=O)N3CCc4ccccc4C3)cc2)s1	103	-10	108	79
CC(C)(C)NC(=O)CCCN1C(=O)/C(=C\c2ccco2)SC1=S	120	-96	96	77
Cc1[nH]nc2c1C(c1ccco1)N(C)C2=O (stereo not drawn)	99	nt	101	80

Entries of single compounds from above:
COc1ccc(Cn2ccc3nc(C)c(C(=O)NCc4ccc(F)cc4)cc3c2=O)cc1 in the list: GIV-Gai inh: 101; HCMV NEC inh: nt; Sa growth inh: 77; Sa growth inh second temp: 95
Cc1[nH]nc2c1C(c1ccco1)N(C)C2=O (stereo not drawn) in the list: GIV-Gai inh: 99; HCMV NEC inh: nt; Sa growth inh: 101; Sa growth inh second temp: 80
CC(C)(C)NC(=O)CCCN1C(=O)/C(=C\c2ccco2)SC1=S in the list: GIV-Gai inh: 120; HCMV NEC inh: -96; Sa growth inh: 96; Sa growth inh second temp: 77

(listing goes on)
SMILES	GIV-Gai inh	HCMV NEC inh	Sa growth inh	Sa growth inh second temp
O=C(NCc1ccc(F)cc1)C1CCCN(c2ccnc(-c3ccc(F)cc3)n2)C1 (stereo not drawn)	110	-21	nt	nt
CCN(Cc1ccc(OC)c(F)c1)C(=O)c1ccccc1-n1cnnn1	nt	-24	81	82
COc1ccc(-c2c(C)c3ccc(O)c(CN4CCCC(C)C4)c3oc2=O)cc1OC (stereo not drawn)	101	nt	84	92
N#CCCN(Cc1ccco1)S(=O)(=O)c1cccc(C(F)(F)F)c1	99	-10	92	88
O=c1onc(-c2cccnc2)n1-c1cccc(C(F)(F)F)c1	106	3	112	69
Cc1cc(C(=O)N=c2sccn2Cc2ccc(Cl)cc2Cl)on1	nt	-8	90	95
CCOC(=O)c1[nH]c(C)c(C(=O)NCc2ccccc2Cl)c1C	103	11	106	92
CCOC(=O)c1ccc(N2C(=O)c3scc(-c4ccc(Cl)cc4)c3S2(=O)=O)cc1	100	-19	nt	nt
O=C(COc1ccc(Cl)cc1)n1cnnc1	nt	-6	99	89
CN(C)/C=C/C(=O)c1cc(F)cc(F)c1O	106	-52	91	82
Nc1cc(=O)[nH]c(SCCOc2ccccc2)n1	100	-11	110	106
CCOc1ccc(NC(=O)c2nn(C)c3c2CS(=O)(=O)c2ccccc2-3)cc1	101	-19	95	85
CN(C(=O)CSc1nnc(-c2cccs2)o1)C1CCCCC1	nt	-10	94	95
Cc1cc(-c2ccco2)n(CC(=O)NCc2ccccc2)n1	107	5	120	90
CC(=O)Nc1ccc(S(=O)(=O)NC2(C(F)(F)F)NC(=O)N(CCc3ccc(F)cc3)C2=O)cc1 (stereo not drawn)	105	-1	91	100
CSc1nc2ccc(NC(=O)CCc3ccccc3)cc2s1	nt	-1	121	103
CCc1nn2cc(-c3ccccc3OC)nc2s1	103	-15	nt	nt
O=C(NCC(O)c1ccccc1)Nc1ccccc1 (stereo not drawn)	104	-4	94	93
O=C(CCc1nc(-c2cccs2)no1)Nc1cnc2ccccc2c1	100	-7	115	93
COc1ccc(OCC(=O)Oc2cc(-c3ccccc3)c3oc(=O)sc3c2)cc1	102	-31	nt	nt
Cc1ccc(N2C(=O)C(Cc3ccccc3)N=C2N2CCC(C)CC2)cc1 (stereo not drawn)	98	-13	103	88
CCC(C(=O)NC1CCCC1)n1c2ccccc2c2nc(=O)cc(C)n21 (stereo not drawn)	100	nt	89	91
COc1ccc(C2CC(=O)N(c3cc(C)ccc3C)C(=O)C2)cc1OC	103	-35	nt	nt
CCCCN(CC)C(=O)C1c2ccccc2C(=O)N(CCOC)C1c1ccc(F)cc1 (stereo not drawn)	101	nt	93	88
Cc1ccc(N2C(=O)CC(c3ccccc3F)C3=C2COC3=O)cc1Cl (stereo not drawn)	104	0	103	101
CCN(CC)C(=O)c1sc(NC(=O)c2c(-c3ccccc3Cl)noc2C)c(C(=O)OC)c1C	109	-5	nt	nt
O=C(NC1CCCc2ccccc21)c1ccc(Nc2ccnc(-c3ccccc3)n2)cc1 (stereo not drawn)	103	-10	nt	nt
N#CCn1c(COC(=O)c2cn(-c3ccccc3)nc2-c2ccc(F)cc2)nc2ccccc2c1=O	nt	-27	78	87
CCOc1ccccc1Nc1c(CC)c(C)nc2ncnn12	101	-8	nt	nt
CCOC(=O)c1ccc(CC2S/C(=N/N=C/c3ccc(O)cc3)NC2=O)cc1 (stereo not drawn)	97	-14	142	88
CN1CCc2nc3sc(C(=O)Nc4cccc(C#N)c4)c(N)c3cc2C1	121	-107	97	90
CCOc1ccc(C2C(C(=O)Nc3ccccn3)c3ccccc3C(=O)N2CCN2CCOCC2)cc1 (stereo not drawn)	102	-2	105	83
CCOC(=O)C1CCN(C(=O)c2cn(-c3ccccc3)nc2-c2cccnc2)CC1	nt	-30	106	94
Cc1cc(Cl)ccc1OCCCC(=O)NO	106	-8&-1	nt	nt
Cn1c(C(=O)Nc2cccc(C(F)(F)F)c2)cc2c(=O)oc3ccccc3c21	97	nt	111	80
COc1ccc(OC)c(CCNC(=O)c2c(C)oc3ncn(CC(C)C)c(=O)c23)c1	115	nt	121	89
Cc1oc(S(=O)(=O)N2CCCC2)cc1-c1nc(-c2ccc(F)cc2)no1	104	-15	106	95
CCN(c1ccccc1)S(=O)(=O)c1ccc(NC(=O)c2nc(S(C)(=O)=O)ncc2Cl)cc1	102	0	-1.4*	-1.1*
CCOC(=O)c1oc2cc(O)ccc2c(=O)c1-c1ccc2c(c1)OCCO2	110	0	104	104
CCOc1ccc(Nc2sc(C(=O)c3ccc(F)cc3)c(N)c2S(=O)(=O)c2ccc(C)cc2)cc1	107	nt	96	90
Cc1ccc(/C(O)=C2\C(=O)C(=O)N3c4ccccc4OC(=O)C23O)cc1 (stereo not drawn)	103	-21	122	108
O=C(c1cc2ccccn2n1)N1CCN(c2ccc(Cl)nn2)CC1	98	nt	94	85
CCCCOC(=O)c1ccc(NC(=O)CSc2nc3c(c(=O)[nH]2)CCC3)cc1	106	-4	114	75
CC1=NN2C(=N)/C(=C/c3cn(CCOc4c(C)cccc4C)c4ccccc34)C(=O)N=C2S1	105	nt	97	83
Cc1ccc(S(=O)(=O)N(C)S(=O)(=O)c2cccc(C(F)(F)F)c2)cc1	nt	-7	95	86

Shown field by field: 2 of the compounds above.
Cc1ccc(/C(O)=C2\C(=O)C(=O)N3c4ccccc4OC(=O)C23O)cc1 (stereo not drawn)
  GIV-Gai inh: 103 | HCMV NEC inh: -21 | Sa growth inh: 122 | Sa growth inh second temp: 108

O=C(c1cc2ccccn2n1)N1CCN(c2ccc(Cl)nn2)CC1
  GIV-Gai inh: 98 | HCMV NEC inh: nt | Sa growth inh: 94 | Sa growth inh second temp: 85

Random draw from the library. About 0.8% of those tested had a hit in this group.
